Source: PubChem BioAssay
NPYLR7 ag: mosquito NPYLR7 agonism; HEK293T NPYLR7/Galpha15, GCaMP6s calcium fluorescence; activation, % at 10 µM; 270,000 compounds, 0.15% hits; in the data active = activation above about 40%;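 also: 0% = vehicle and 100% = reference agonist at the receptor; some compounds past the cut are filed as inactive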
NPYLR7 ag max-min: also measured in NPYLR7 ag; calls as there; activation, %; measured here: Max-Min RFU normalised activation; some inactives read as strong as hits;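 span of the calcium signal over five minutes; 0% = vehicle and 100% = native peptide agonist; compound fluorescence can raise it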
* = called active by the depositor; & = joins results of further samples.

SMILES	NPYLR7 ag	NPYLR7 ag max-min
CCCNC(=O)c1cc(S(=O)(=O)NC(C)CCC)c(Cl)cc1Cl (centres undefined)	9	5
CC(=O)NC(C(=O)OCc1nc(-c2ccc(C)cc2)no1)C(C)C (centres undefined)	5	1
CCOC(=O)CCc1c(C)nc2ncnn2c1N1CCN(S(=O)(=O)c2cc(C)c(Cl)cc2Cl)CC1	29	14
CN1CC2(CCCN(C(=O)CCc3ccccn3)CC2)OC1=O (centres undefined)	5	1
Cn1c(=O)[nH]c(=O)c2c1nc(N1CCCCC1)n2CCCSc1nc2ccccc2o1	1	22
CCn1cc(C(CC(=O)N2CCCC2)c2cccc(Cl)c2)c2ccccc21 (centres undefined)	26	28
CN(C)CCN(C(=O)c1ccco1)c1nc2c(F)cc(F)cc2s1	-7	-9
O=C(Nc1ccccc1)N1CCCN(c2ccc(C(F)(F)F)cn2)CC1	-2	-3
Cc1ccc(S(=O)(=O)N2CCN(c3ccccc3[N+](=O)[O-])CC2)cc1	-5	15
Cc1cc(C(=O)N2CCN(C(c3ccc(Cl)cc3)c3ccc(Cl)cc3)CC2)no1	1	-8
CCOC(=O)C1CCCN(C(=O)c2csc(COc3ccc(C)cc3OC)n2)C1 (centres undefined)	21	22
CCCS(=O)(=O)N(C)C(=O)c1ccc(CC)o1	-4	-9
CC(C)OCCCn1c(N/N=C2\CCCCC2C)nc2ccccc2c1=O (centres undefined)	2	-1
CCOc1ccccc1C(=O)NC1C=CC(C(C(=O)OC)c2ccccc2F)C1 (centres undefined)	2	-1
CC1CCc2[nH]nc(C(=O)N(C)C3Cc4ccccc4C3)c2C1 (centres undefined)	10	2
COc1ccccc1N1CCN(c2nc(-c3ccccc3F)nc3ccccc23)CC1	2	4
CCc1ccccc1NC(=O)CCn1cnc(-c2ccccc2)c1C1CC1	10	3
CC1=C(C(=O)OC(C)C)C(c2cccc(NC(=O)c3ccc4ccccc4c3)c2)NC(=S)N1C (centres undefined)	15	27
CCCN(Cc1ccccc1)CC(O)c1cccc(Br)c1 (centres undefined)	1	23
Cc1cc(=O)[nH]c(-n2nc(C)cc2NC(=O)C23CC4CC(CC(C4)C2)C3)n1	3	0
CC(NC(=O)CNC(=O)COc1ccccc1)c1ccc(Br)cc1 (centres undefined)	-4	-7
Cc1cc(F)ccc1Oc1cc(N2CCN(CC(=O)N3CCCC3)CC2)ncn1	-9	-8
COc1c(Br)cc(Br)cc1C(=O)NC(=S)NNC(=O)c1ccncc1	1	-4
Cc1ccc(NC(=O)c2c(N)c(C(=O)c3ccccc3)n3ccccc23)c(C)c1	-6	-8

Retrieved by structure from the list above:
SMILES	NPYLR7 ag	NPYLR7 ag max-min
CCc1ccccc1NC(=O)CCn1cnc(-c2ccccc2)c1C1CC1	10	3
COc1c(Br)cc(Br)cc1C(=O)NC(=S)NNC(=O)c1ccncc1	1	-4
CC1=C(C(=O)OC(C)C)C(c2cccc(NC(=O)c3ccc4ccccc4c3)c2)NC(=S)N1C (centres undefined)	15	27
Cc1cc(=O)[nH]c(-n2nc(C)cc2NC(=O)C23CC4CC(CC(C4)C2)C3)n1	3	0

The results go on:
SMILES	NPYLR7 ag	NPYLR7 ag max-min
Cc1ccc(Cc2nc(N3CCN(C(=O)c4ccc(Cl)cc4Cl)CC3)c3cnn(-c4ccccc4)c3n2)cc1	-12	0
COc1ccc(C(=O)C2CCCN(C(=O)c3cccnc3OC)C2)c(C)c1 (centres undefined)	13	4
CCc1nc(N2CCC(C)CC2)c(C#N)c2c1COC(C)(C)C2	5	2
Cc1nc(CCNC(=O)CC2C(=O)NCCN2Cc2ccccc2)sc1C (centres undefined)	27	20
CCc1nc2ccc(C(=O)NCc3ccccc3OC)cn2c1N(CC)C(=O)CCC1CCCC1	9	11
CC(C)c1ccc(CN(CC#N)C(C)C)cc1	-3	-6
CN(C(=O)C1CC1)c1ccccc1C(=O)NCC1Cc2ccccc2O1 (centres undefined)	-1	-2
Cc1ccc(NC(=O)CCNC(=O)c2sc(C(C)C)nc2C)c(C)c1	21	11
Cc1ccc2c(c1)c(CNC(=O)CSc1nnc(N)s1)nn2C	18	15
COCC(=O)Nc1ccc(-c2c(CC(C)C)nn(-c3ccc(C)cc3)c2OC(C)=O)cc1	15	13
N#CC(c1ccccc1)N1CCN(C(=O)CCl)CC1 (centres undefined)	-10	-3
CCONC(=O)c1cc(C)ccc1O	9	4
CCC(C(=O)N1CCN(c2ncccc2C(=O)NCc2ccc(OC)cc2)CC1)c1ccccc1 (centres undefined)	-6	-1
CCN(CC)C(=O)Oc1ccc2c(ccn2Cc2ccc(F)cc2C(F)(F)F)c1-c1ccc(C#N)cc1	9	-6
CN(Cc1cccc(C(=O)Nc2ccc(F)cc2F)c1)Cc1ccno1	8	-4
O=C(c1ccc(F)cc1F)N1CCC2(CC1)OCC(C(=O)N1CCOCC1)N2C(=O)c1ccc(F)cc1 (centres undefined)	2	8
COc1ccc2nc(-c3cccc(NS(=O)(=O)c4cc(F)ccc4F)c3)cn2n1	-7	-11
C#CCNC(=O)CCNC(=O)N1Cc2ccccc2C1	4	6
CC1(OCC#CCN2CCOCC2)COC(C)(OCC#CCN2CCOCC2)OC1 (centres undefined)	0	-4
COc1ccc(-c2n[nH]c(CNC(=O)C3CC=CCC3)n2)cc1 (centres undefined)	2	-1
CN1CCN(Cc2ccccc2CNC(=O)N(C)C(C2CC2)C2CC2)CC1	20	19
N#CC1(c2ccccc2)CCN(C(=O)CN2C(=O)C(Oc3ccccc3)C2c2ccccc2)CC1 (centres undefined)	7	6
Cc1ccccc1N1CCN(C(=O)C2CCCC2)C(C)C1=O (centres undefined)	18	19
CN(Cc1cc(Br)cs1)C(=O)Cn1nnc2ccccc21	1	1

Whole records, looked up by structure. Order of values: NPYLR7 ag, NPYLR7 ag max-min
CCC(C(=O)N1CCN(c2ncccc2C(=O)NCc2ccc(OC)cc2)CC1)c1ccccc1 (centres undefined) as listed: -6, -1
N#CC1(c2ccccc2)CCN(C(=O)CN2C(=O)C(Oc3ccccc3)C2c2ccccc2)CC1 (centres undefined) as listed: 7, 6

Remaining list, next part:
SMILES	NPYLR7 ag	NPYLR7 ag max-min
CCOc1ccc(-c2nc(Cn3nnc(C(=O)Nc4ccc(C)c(F)c4)c3C)c(C)o2)cc1	-2	-6
Cc1ccc(-n2nc(C(=O)NC3CC3)c(=O)n(Cc3ccc(C(F)(F)F)cc3)c2=O)cc1	8	5
CC(C)(C)c1ccc(S(=O)(=O)N2CCC[C@@H]2C(=O)NC2CCC(NC(=O)c3ccccc3)CC2)cc1 (some centres undefined)	0	7
Cc1cc(Cl)ccc1C(=O)C1CCCN(C(=O)/C=C/c2cnc[nH]2)C1 (centres undefined)	10	6
c1ccc(-c2nc3c([nH]2)CCc2nonc2-3)cc1	1	-3
Cc1ccc(C)c(C(C)NC(=O)CCc2c(C)nc3nc(N)nn3c2C)c1 (centres undefined)	-5	-4
COc1cn(CC(=O)NCCc2ccccc2)c(CSc2nnc(C)s2)cc1=O	-11	-16
CC(C)Cc1nc(-c2cccc(CN3CCN(C(=O)c4cccc(C#N)c4)CC3)c2)no1	6	3
CN(CCCNC(=O)N1CCCC1c1ccsc1)c1ccccn1 (centres undefined)	0	-1
O=C(Nc1cccc(F)c1)C(C1CCCC1)N1CCN(C(=O)c2ccccc2C(F)(F)F)CC1 (centres undefined)	14	17
Cn1cnnc1SCCNC(=O)c1ccc(Cl)cc1	12	2
CCc1cccc2c(C(CC(=O)NCCCOC)c3ccccc3)cn(CC)c12 (centres undefined)	9	12
CN1OCC(S(=O)(=O)NCc2ccco2)C1c1ccccc1Cl (centres undefined)	4	0
Cc1cc(OCC(=O)NNC(=O)/C=C\c2ccc(Cl)cc2)cc(C)c1Cl	-2	-5
Cc1cc(C)cc(NC(=O)Cn2c(-c3nnc(C)o3)cc3ccccc32)c1	-1	-2
CCc1ccc(S(=O)(=O)Nc2ccc(-c3csc4nc(C)cc(=O)n34)cc2)s1	-6	-6
O=C1CCN(CC(O)C(F)(F)F)c2ccccc2CN1C1CC1 (centres undefined)	-1	6
Cc1ccc(Nc2nnc(SCC(C)C)s2)cc1	12	10
CC1(N)CCS(=O)(=O)C1 (centres undefined)	-3	-5
O=C(c1cccc(Br)c1)N(CC(=O)N1CCc2sccc2C1COc1ccc(Cl)cc1)C1CC1 (centres undefined)	21	18
O=C(C1CC1c1ccc(Br)cc1)N1CCCCC1 (centres undefined)	3	2
CCOCCn1c(=NC(=O)CCS(=O)(=O)c2ccccc2)sc2cccc(F)c21	1	2
Cc1cc(C)c2c(-n3cccc3)c(C(=O)NC3=NCCS3)sc2n1	7	4
CCN(C)c1cc(Oc2ccc(Cl)cc2)ncn1	-13	-11
CC(C)(C)C1=CC(=NS(=O)(=O)c2ccc(F)cc2)C=C(C(C)(C)C)C1=O	7	0
CNC(=O)c1cc2c(=O)n3cccc(C)c3nc2n1C	3&0	2&-2
CCn1c(CN2CC(C)OC(C)C2)nc2cc(S(=O)(=O)N(C)C)ccc21 (centres undefined)	8	5
c1ccc(-c2nc3c(NCc4ccncc4)nccc3[nH]2)cc1	-3	-10
CC(C)(C(N)=O)/[N+]([O-])=C\c1ccccc1	1	-9
Cc1ccc(C)c(CN2CCN(c3nc4c(c(=O)[nH]c(=O)n4C)n3Cc3cc(C)ccc3C)CC2)c1	1	-1
O=C(NCC1CCCN(Cc2ccc3c(c2)OCCO3)C1)c1ccco1 (centres undefined)	4&-7	2&-8
CCC1SC(c2ccccc2OC)N(CCNC)C1=O (centres undefined)	2	-2
N[C@@H]1CC[C@@H](NC(=O)CCCn2cncn2)C1	-2	-8
CC(C)C(=O)N1CCN(c2ncnc3c2nnn3Cc2ccccc2)CC1	-4	-15
Cc1nn(CC(O)COc2ccc(C(=O)c3ccccc3)cc2)c(C)c1Br (centres undefined)	3	6
Cc1nc(Cc2nn(CN3CCN(c4ccccc4)CC3)c(=S)o2)cs1	6	4

Compounds from the list above that have a tert-butyl group (two):
SMILES	NPYLR7 ag	NPYLR7 ag max-min
CC(C)(C)c1ccc(S(=O)(=O)N2CCC[C@@H]2C(=O)NC2CCC(NC(=O)c3ccccc3)CC2)cc1 (some centres undefined)	0	7
CC(C)(C)C1=CC(=NS(=O)(=O)c2ccc(F)cc2)C=C(C(C)(C)C)C1=O	7	0

New compounds follow:
SMILES	NPYLR7 ag	NPYLR7 ag max-min
O=S(=O)(NCCN1CCCCCC1)c1ccccc1F	12	11
CCOc1ccc(-c2nc(CSc3nc4c(c(=O)[nH]3)CCCC4)c(C)o2)cc1	-1	-4
O=C(NC1CC1)C1COC2(CCCCC2)N1C(=O)c1cc(F)cc(F)c1 (centres undefined)	-4	6
COC(=O)CC1(CS(=O)(=O)NCc2ccccc2F)CC1	1	0
COc1ccc(CCNC(=O)c2ccccc2N2CCC(NC(=O)c3ccc(F)cc3F)CC2)cc1OC	-4	3
CC(C)(C)NC(=O)c1ccc(C(=O)N2CCCC2c2cccs2)cc1 (centres undefined)	-18	-22
CC1SC(=NC(=O)N2c3ccccc3Sc3ccccc32)NC1=O (centres undefined)	-1	-5
CCc1ccc(S(=O)(=O)NCC(c2ccc3c(c2)CCN3C)N2CCCC2)s1 (centres undefined)	1	-1
CC(=O)N1CCn2nc(C(=O)NCc3nc4cc(C(C)(C)C)ccc4o3)cc2C1	0	-3
COc1ccc(F)c(CC2(CCC(=O)N3CCOc4ccc(Cl)cc4C3)CCC(=O)N2)c1 (centres undefined)	4	-1
CCCCn1c(=O)c2c(nc3n(CCN4CCOCC4)c(C)cn23)n(C)c1=O	6	2
COCCCN(CC(=O)Nc1cc(C(C)(C)C)nn1-c1ccc(C)cc1C)C(=O)CCc1ccccc1	13	16
O=C(NC1CC1)C1CCN(CCOc2ccc(Cl)cc2Br)CC1	2	3
CN(C)c1ccc(NC(=O)c2cccc(F)c2)cc1CN(CC1CC1)C(=O)C(C)(C)C	7	18
Cc1noc(C)c1CNc1cc(S(C)(=O)=O)ccc1F	13	10
COc1ccc(C(=O)NC2CC2)c(OC2CCN(CCc3ccccc3)CC2)c1	16	4
CCN(CC(=O)Nc1cc(C(C)(C)C)nn1-c1ccc(F)cc1)C(=O)c1ccc(C(C)(C)C)cc1	3	13
CCc1cc(C(=O)NC2CC(=O)N(Cc3ccccc3Cl)C2)ccn1 (centres undefined)	-1	-2
O=c1oc2ccc(O)cc2c2c1NCCC2	0	7
Cc1cc(Cl)c(NC(=O)N(C)Cc2ncnn2C)c2cccnc12	-3	-4
CC1CN(C(=O)CCc2nnc(C3(c4ccc(Cl)cc4)CCC3)o2)CCN1C (centres undefined)	5	2
COc1ccc(C2=NN(c3nc(-c4ccccc4)c4cc(Cl)ccc4n3)C(c3cn(-c4ccccc4)nc3-c3ccccc3)C2)cc1 (centres undefined)	-8	-4
Cc1occc1C(=O)N(C)CC1CCCN(CCc2ccccc2F)C1 (centres undefined)	1	-3
C[C@H]1O[C@@H](O[C@H]2[C@@H](O)C[C@H](O[C@H]3[C@@H](O)C[C@H](O[C@H]4CC[C@@]5(C)[C@H](CC[C@@H]6[C@@H]5C[C@@H](O)[C@]5(C)[C@@H](C7=CC(=O)OC7)CC[C@]65O)C4)O[C@@H]3C)O[C@@H]2C)C[C@H](O)[C@@H]1O	-5	-7
CCNc1cc(C)nc(N2CCN(C(=O)c3ccc(C(C)(C)C)cc3)CC2)n1	11	7
CCN(C)c1ccc(C(=O)NCC2(C)CCCS2)cc1 (centres undefined)	-4	-4
CC(C)Nc1ccc(C(=O)N[C@@H]2C[C@H]3CC[C@@H]2C3)cn1	-6	-14
CC(NC(=O)C1C2CC3CC(C2)CC1C3)C(=O)NC(CCC(N)=O)C(=O)O (centres undefined)	17	9

An excerpt. The share of hits here may be higher or lower than overall.
